MgrA DNA FP: modulators of Staphylococcus aureus MgrA DNA binding. fluorescence polarization. inhibition, %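 (about 10 µg/mL by stock and volumes)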. 84,000 tested, 0.13% active;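 active = above 50% in either of two replicates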;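 note: 0% = protein plus DNA without compound and 100% = DNA alone without protein; higher means less MgrA bound to DNA so lower polarization; one replicate is shown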
Sa helicase inh: S. aureus DNA helicase inhibition. AID 485395. purified S. aureus helicase, fluorescence unwinding assay; about half of the hits fall short of the stated cut. inhibition, %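 (tested at about 80 µM)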. 120,000 tested, 0.05% active;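 active = both duplicates at 50% or more, or one of them with a favoured structure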;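 note: 0% = mean of negative control wells and 100% = mean of positive control wells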
Starred values were filed as active, the others as inactive; / = not tested or not shown; & = joins results of further samples.

Sequence of screens – MgrA DNA FP, Sa helicase inh
- CN1CCN(c2nc(-c3ccccc3)c3ccccc3n2)CC1
  /, 7
- CC(=O)Nc1ccc(C(F)(F)F)cc1Br
  0.1, /
- O=C1Cc2cc(S(=O)(=O)NC3CCCC3)ccc2N1
  0.7, 11
- Cc1cc(C(=O)COC(=O)c2ccc3c(c2)NC(=O)CS3)c(C)n1Cc1cccs1
  /, 15
- C=CCN(CC=C)C(=O)c1ccc(NC(=O)CC)cc1
  -6.1, 0
- O=C(O)CCCn1c(C(F)(F)F)nc2ccccc21
  -0.4, 6
- CN(C)c1ccc(/C=N/NC(=O)C2=CCN(Cc3ccccc3)CC2)cc1
  1.6, 6
- CCN(CC)c1ccc2cc(C(N)=O)c(=Nc3ccc(F)cc3)oc2c1
  1.7, 0
- CC1CCCCN1S(=O)(=O)c1ccc(C(=O)Nc2nnc(-c3cccs3)o2)cc1 (stereo not drawn)
  /, 21
- COc1ccc(C2CC(=O)C3=C(C2)Nc2ccccc2NC3c2cc(Cl)c(O)c(OC)c2)cc1 (stereo not drawn)
  -2.3, /
- NC1=NN(c2ccccc2)CC1
  4.0, 27
- Cc1ccc(NC(=S)Nc2cccc(Cl)c2)cc1NS(C)(=O)=O
  3.3, /
- O=C(c1cnoc1)c1ccccc1O
  /, -10
- O=C(CSc1n[nH]c(=O)n1-c1ccccc1C(F)(F)F)c1ccc(F)cc1
  1.1, /
- CC1CN(CC(O)COCCC23CC4CC(CC(C4)C2)C3)CC(C)O1 (stereo not drawn)
  /, -4
- N#CCOC(=O)c1cccnc1SCC#N
  /, -31
- O=C1CN(C(=O)CSc2nnc(Cc3cccs3)n2CCc2ccccc2)c2ccccc2N1
  /, 8
- COc1cc(/C=C2/SC(=S)N(CC(=O)O)C2=O)ccc1OCc1ccc([N+](=O)[O-])cc1
  5.7, /
- CNS(=O)(=O)c1cc(O)c2c(S(=O)(=O)NC)cccc2c1
  0.6, 12
- O=C(CSc1c2c(nc3ccccc13)CCCC2)NC1CCCCC1
  0.7, -9
- CCCCOc1ccc(C2=N/C(=C\c3ccc(OC)c(OC(C)=O)c3)C(=O)O2)cc1
  3.0, /
- CN(Cc1ccccc1)C(=O)COC(=O)c1ccc(S(=O)(=O)N(C)C)cc1
  /, 29
- CCN(CC)S(=O)(=O)c1ccc2oc(=S)n(CN3CCCCC3)c2c1
  /, 8
- COc1ccc(C(=O)COC(=O)CN2C(=O)C3CC=CCC3C2=O)cc1 (stereo not drawn)
  0.8, -12
- CCC1CC(C)(c2csc(Nc3ccccc3)n2)OC1=O (stereo not drawn)
  /, 3
- CN=C(NO)C(=O)c1ccc(Cl)cc1
  -1.8, /
- N#CCSc1nc2cc(Cl)ccc2c(=O)n1Cc1ccccc1
  /, 2
- NC(=O)NC(=O)c1cccnc1
  -1.9, /
- Cc1onc(-c2c(F)cccc2Cl)c1C(N)=O
  -0.9, /
- CCn1c(=S)ccc2ccccc21
  3.9, 11
- Cc1nc2nc(N)[nH]c(=O)c2nc1C
  /, 7
- C=CCNC(=O)COc1ccc2c(C)cc(=O)oc2c1
  /, -7
- Oc1ccccc1C1C=CCC1 (stereo not drawn)
  -2.7, 4
- O=S(=O)(Cc1ccccc1)N1CCCC(c2nc(-c3cccs3)no2)C1 (stereo not drawn)
  -0.6, 7
- O=[N+]([O-])c1sccc1CS(=O)(=O)c1ccccc1
  0.6, /
- CCN(CC)S(=O)(=O)c1ccc(N2CCCC2=O)cc1Cl
  -0.3, 2
- O=C(C1CC1)N1CCc2cc(Br)cc(S(=O)(=O)N3CCN(C4CCCCC4)CC3)c21
  /, 7
- CC(C)CNc1ncnc2sc3c(c12)CCCC3
  3.9, 17
- CC(NC(=O)C(c1ccccc1)c1ccccc1)C(=O)O (stereo not drawn)
  /, -16
- Cc1cc(C(=O)O)c(C#N)c(N)n1
  -0.4, 2
- CSC(=NC1CCCCC1)Nc1cc(-c2ccccc2)[nH]n1
  1.6, 22
- CC(O)(C(=O)NN=C1CCCC1)c1ccccc1 (stereo not drawn)
  -1.4, 6
- O=S1(=O)c2cccc3cccc(c23)N1Cc1cccc(Br)c1
  1.1, 9
- Cc1cc(C)c(-c2ccn(C(=O)c3cc(-c4ccccc4)oc3C)n2)[nH]1
  /, -12
- Cc1ccc(S(C)(=O)=O)cc1C(=O)NC1CCC(C)CC1 (stereo not drawn)
  /, -12
- O=C(NCCCN1CCN(c2ccc(F)cc2)CC1)C1c2ccccc2C(=O)N2CCc3ccccc3C12 (stereo not drawn)
  /, 48
- Cc1cccc(C)c1NC(=O)CSc1ncccc1C(=O)O
  /, -6
- CC1CN(C(=O)c2cccc(Cl)c2)CCN1C(=O)c1cccc(Cl)c1 (stereo not drawn)
  /, 0
- CC(Sc1nnc2sc3ccccc3n12)C(=O)O (stereo not drawn)
  /, 10
- CNC(=O)Cn1cc(S(=O)(=O)Cc2ccccc2)c2ccccc21
  /, 2
- O=C(NCCc1c[nH]c2ccccc12)C1Cc2ccccc2CN1C(=O)c1ccco1 (stereo not drawn)
  /, -5
- C=CCn1c(O)c(CN2CCN(Cc3ccccc3)CC2)c(C)c(C#N)c1=O
  0.7, 3
- CCCCCCN1C(=O)NC(c2ccccc2)C1=O (stereo not drawn)
  /, 18
- Cn1c(N2CCN(S(=O)(=O)c3ccc(Cl)cc3)CC2)nc2ccccc21
  -3.4, 17
- O=C(NN=C1CCCC1)c1ccccc1O
  -1.8, 0
- O=C(c1ccccc1)c1ccc(C(=O)O)c(C(=O)O)c1
  1.8, -10
- O=C(Nc1ccccc1)Nc1ccccc1C(=O)NCC1CC1
  -1.1, /
- O=C(CSc1ccccc1C(=O)O)c1ccccc1
  -4.5, 10
- COc1ccc(S(=O)(=O)NC(CC(=O)O)C(C)C)cc1 (stereo not drawn)
  -6.8, 8
- CN(Cc1cccs1)C(=O)CSc1nnc(-c2ccccc2)n1-c1ccccc1
  /, -15

Pulled by structure from the entries so far (four):
Sequence of screens – MgrA DNA FP, Sa helicase inh
- Cc1cccc(C)c1NC(=O)CSc1ncccc1C(=O)O
  /, -6
- COc1ccc(S(=O)(=O)NC(CC(=O)O)C(C)C)cc1 (stereo not drawn)
  -6.8, 8
- CN(Cc1cccs1)C(=O)CSc1nnc(-c2ccccc2)n1-c1ccccc1
  /, -15
- Cc1cc(C(=O)O)c(C#N)c(N)n1
  -0.4, 2

(continued)
SMILES	MgrA DNA FP	Sa helicase inh
C=CCn1c(-c2ccccc2Cl)nn(CCC#N)c1=S	/	-13
O=C(COc1ccccn1)N1CCN(c2ccccc2)CC1	0.3	13
O=C(c1ccco1)c1cn(CC(=O)N2CCc3ccccc32)c2ccccc12	-9.1	0
O=C(O)C12C3CCC4C5C3C1C5(C(=O)O)C42 (stereo not drawn)	-1.4	/
O=S(=O)(NC1CCCc2ccccc21)c1ccc2c(c1)OCCO2 (stereo not drawn)	/	19
CN(C)C(=O)CSc1ccc(-c2ccc(F)cc2)nn1	-2.2	10
COCCn1c(C)nnc1SCC1CCCO1 (stereo not drawn)	-4.0	10
CCOC(=O)n1c(=S)[nH]c2ccc(C)cc2c1=O	1.1	/
N#Cc1cn(CC(=O)N2CCc3ccccc3C2)c2ccccc12	0.5	-12
O=C1c2ccccc2C(=O)N1CSc1nnc(-c2cccs2)o1	/	2
CNc1nc(=S)[nH]c2ccccc12	/	11
O=C(c1ccc(OC(F)(F)F)cc1)c1cc2cc([N+](=O)[O-])ccc2o1	-2.9	/
CC(=O)Oc1cc2c(C(=O)NCCCN3CCOCC3)c(C)oc2c2ccccc12	/	6
Cc1oc(-c2ccccc2)nc1C(=O)N(C)CC(=O)Nc1ccc(N2CCOCC2)cc1	/	-20
Cc1nnc(C)c2c(C)n(-c3ccc4c(c3)OCO4)c(C)c12	2.5	8
Cc1csc(=N)n1CC(=O)N1CCc2ccccc21	/	11
O=C(O)CCC(=O)Nc1ccc(S(=O)(=O)Nc2nccs2)cc1	-1.5&-2.4&1.0	/
CC1SCC(NC(=O)c2ccccc2)CS1 (stereo not drawn)	-2.2	/
O=C(CCCc1ccccc1)N/N=C/c1ccc(O)cc1O	-2.0	11
N#CCc1ccc(N=Cc2cc(Cl)cc(Cl)c2O)cc1	3.8	/
O=c1cnc2ccccc2n1Cc1cc(=O)n2ccsc2n1	/	5
CC(C)(C)NC(=O)Cn1cnc2c(cnn2-c2ccccc2)c1=O	-1.1	12
Cc1ccccc1Nc1nc(N)nc(COC(=O)Cc2c[nH]c3ccccc23)n1	/	7
Nc1ncc(Br)cc1Br	-1.9	/
N#Cc1c(Nc2ccccc2Cl)s[nH]c1=O	/	-14
COc1cccc(CN2CCc3nc(N4CCOCC4)ncc3C2)c1	/	3
COc1ccc(-c2cc(=S)sc(N)c2C#N)cc1OC	0.4	/
CCCN1CCC(NC(=O)Nc2ccccc2C(=O)OC)CC1	0.0	8
Nc1ccc(-c2nc3ccccc3o2)cc1	-0.3	/
Cc1ccc(-c2nnc(NC(=O)c3ccc(S(=O)(=O)N4CCCC4)cc3)o2)c(C)c1	/	3
O=C1NCCN1CCNC(=S)Nc1ccc(OC(F)(F)F)cc1	-0.2	/
COC(=O)c1ccc(Oc2nc(NC(C)C)nc(NC(C)C)n2)cc1	1.5	/
Cn1nc(-c2ccc(Cl)cc2)c2cc(C(=O)NCC3CCCO3)sc21 (stereo not drawn)	/	-16
CC(C)N(C(=O)Cn1c(SCC(=O)N2CCOCC2)nc2ccccc21)C(C)C	18	-4
CCOC(=O)c1c(C=O)oc2c(C)cc(OC(=O)c3ccccc3Br)c(Br)c12	-2.1	/
N#CC1=C(N)OC2=C(C(=O)CCC2)C12C(=O)N(CC(N)=O)c1ccccc12 (stereo not drawn)	1.8	8
O=C(O)c1ccc(N=Cc2cccnc2)cc1	0.8	3
Cc1ccc(S(=O)(=O)CCSC2=CC(=O)CC(C)(C)S2)cc1	-0.9	/
CN1CCN(NC(=O)CSc2ccc(Cl)cc2Cl)CC1	/	7
NC(=O)c1ccc(OC2CSC2)cc1	0.6	4

Laid out differently: results already given
SMILES: O=C1NCCN1CCNC(=S)Nc1ccc(OC(F)(F)F)cc1
  MgrA DNA FP = -0.2 | Sa helicase inh = /
SMILES: COC(=O)c1ccc(Oc2nc(NC(C)C)nc(NC(C)C)n2)cc1
  MgrA DNA FP = 1.5 | Sa helicase inh = /
SMILES: Cn1nc(-c2ccc(Cl)cc2)c2cc(C(=O)NCC3CCCO3)sc21 (stereo not drawn)
  MgrA DNA FP = / | Sa helicase inh = -16
SMILES: CC(C)N(C(=O)Cn1c(SCC(=O)N2CCOCC2)nc2ccccc21)C(C)C
  MgrA DNA FP = 18 | Sa helicase inh = -4

Carrying on.
SMILES	MgrA DNA FP	Sa helicase inh
O=C(O)c1ccccc1C(=O)NCc1csc2ccccc12	-2.9	/
COc1ccccc1NC(=O)CSCc1cnc(C)c(O)c1CO	0.2	/
COC(=O)C1CCN(C(=O)c2cc(S(N)(=O)=O)ccc2OC)CC1	/	4
COc1ccc2nc(NC(=O)C3CCC3)sc2c1	0.9	16
Cc1nsc(N)c1C(=O)O	/	-17
N#CCCn1cc(C(=O)COc2ccccc2C#N)c2ccccc21	/	6
O=C(NCCNc1nccc(C(F)(F)F)n1)c1cccs1	-1.2	/
Cc1nc2n(c(=O)c1CCN1CCC(c3noc4cc(F)ccc34)CC1)CCCC2	-1.0	/
S=C(NCCN1CCOCC1)NC1CCCc2ccccc21 (stereo not drawn)	-0.8	13
CC(=O)c1ccc(OCc2ccc(Cl)c(Cl)c2)c(C)c1O	-0.6	/
Cc1nc2cc(NS(=O)(=O)c3ccccc3F)ccc2s1	/	-1
COc1nsnc1NS(=O)(=O)c1ccc(-n2c(-c3ccc4ccccc4n3)n[nH]c2=S)cc1	/	-14
Nc1nc2nccnc2c(=O)[nH]1	/	-10
Cc1ccc(Cn2c(=O)n(-c3ccc(C)c(C)c3)c(=O)c3oc4ccccc4c32)cc1	3.8	10
COc1ccc(C(CC(=O)NCCc2ccco2)n2cccc2)cc1 (stereo not drawn)	/	0
CCCN(Cc1nc2cc(Cl)ccc2c(=O)[nH]1)C(=O)c1ccc(S(=O)(=O)N2CCCC2)cc1	/	-23
CCOc1ccc(C2C(C(=O)c3ccc(C)o3)=C(O)C(=O)N2Cc2cccnc2)cc1OC (stereo not drawn)	/	-23
Cc1c(C(=O)NN2CCCCC2)nn(-c2ccc(Cl)cc2Cl)c1-c1ccc(I)cc1	-0.6	/
Cc1ccccc1-c1nc(CS(=O)(=O)CC(=O)N2CCCC2)c(C)o1	/	12
C=CCn1cc(C(=O)c2cc(Cl)ccc2O)cc(C#N)c1=O	/	2
O=C(CC1Sc2ccccc2NC1=O)Nc1ccc(F)cc1 (stereo not drawn)	/	-20
C=CC[C@H]1CC(C)=C[C@H](CC=C)N1C(C)=O	/	10
CCn1c(COc2ccc(Cl)c(C)c2)nc2cc(S(=O)(=O)N(C)C)ccc21	/	6
N#C/C(=C\c1ccc(N2CCCCC2)o1)C(N)=O	-38	-88
Clc1ccc(-c2csc(-c3cccc(-n4cccc4)c3)n2)cc1	/	7
CCOC(=O)c1ccc(NC(=O)C23CCC(C)(C(=O)C2)C3(C)C)cc1 (stereo not drawn)	/	17
CC(C)c1ccc(S(=O)(=O)/N=C2/C=C(Sc3ncn[nH]3)C(=O)c3ccccc32)cc1	32	16
c1cncc(-c2noc(-c3ccc4c(c3)OCO4)n2)c1	-2.2	0
Cc1ccccc1Nc1nc(N)nc(COn2nnc3ccc(S(C)(=O)=O)cc32)n1	/	2
CCOC(=O)CN1C(=O)C2(OCCO2)c2cc(Br)ccc21	-2.2	/
CCCN(CCO)CC1CCCCC1	2.4	16
CC(C)CCn1c(=O)c2cccnc2n(Cc2cccc(Cl)c2)c1=O	/	-11
CC(=O)Nc1ccc(NC(=O)CCCC(=O)O)cc1	-3.2	/

These rows are one share of the data; the hit share may differ from the screen's.
